Rce1 inh: yeast Ras-converting enzyme inhibition; yeast membranes, quenched prenylated peptide cleavage fluorescence; calls only; hit rate 0.27% among 290,000;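 active = fall in fluorescence gain of 50% or more versus controls, with final raw signal at or below 3038400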;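 also: plate controls were neutral control wells for no effect and wells lacking membranes for full effect; tested at 10 µM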
MT1-MMP act inh: blocks activation of human MT1-MMP; P50281; HT1080 RFP-PRO-GFP cells, GFP/RFP ratio fluorescence, overnight; percent of plate control window, DMSO zero; GFP/RFP ratio change, % at 20 µM; hit rate 0.061% among 360,000; AID 651647;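 active = GFP/RFP ratio change of at least 30% with cell ATP level not reduced by more than half and red fluorescence within 50% of control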; also: strong numbers were not always called active
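Material – HT1080 RFP-PRO-GFP cells · Control set – DMSO wells and RFP-L50D-GFP cells · Incubation – overnight cell settling, then overnight compound exposure, 37 °C, 5% CO2 · Compound dosing – single-point 20 µM compound, 1% DMSO · Read-out – GFP/RFP fluorescence ratio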
HIV Env fusion: HIV envelope-mediated fusion inhibition; HeLa-JRFL Env/CEM21 cell fusion, luciferase; inhibition, % at 12.3 µM; hit rate 1.1% among 360,000; AID 651610;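 active = mean replicate inhibition score of at least 50 and every replicate individually at or above 50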;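 also: 0% = plate neutral controls and 100% = maraviroc near 300 nM; one replicate is shown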
PABP FP inh: blocks human PABP binding to poly(A) RNA; P11940; fluorescence polarization; inhibition, % at 35 µM; hit rate 1% among 290,000;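 active = 50% or more with normal probe brightness, or confirmed in later tests; about a fifth of its hits are not listed in these tables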;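 also: calls also rest on retests at 20 µM and on dose response follow-up; controls were probe without protein and protein plus probe with vehicle; some compounds called inactive have numbers as strong as hits; many hits fall short of the cut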
Target sequence (P11940 whole entry, looked up): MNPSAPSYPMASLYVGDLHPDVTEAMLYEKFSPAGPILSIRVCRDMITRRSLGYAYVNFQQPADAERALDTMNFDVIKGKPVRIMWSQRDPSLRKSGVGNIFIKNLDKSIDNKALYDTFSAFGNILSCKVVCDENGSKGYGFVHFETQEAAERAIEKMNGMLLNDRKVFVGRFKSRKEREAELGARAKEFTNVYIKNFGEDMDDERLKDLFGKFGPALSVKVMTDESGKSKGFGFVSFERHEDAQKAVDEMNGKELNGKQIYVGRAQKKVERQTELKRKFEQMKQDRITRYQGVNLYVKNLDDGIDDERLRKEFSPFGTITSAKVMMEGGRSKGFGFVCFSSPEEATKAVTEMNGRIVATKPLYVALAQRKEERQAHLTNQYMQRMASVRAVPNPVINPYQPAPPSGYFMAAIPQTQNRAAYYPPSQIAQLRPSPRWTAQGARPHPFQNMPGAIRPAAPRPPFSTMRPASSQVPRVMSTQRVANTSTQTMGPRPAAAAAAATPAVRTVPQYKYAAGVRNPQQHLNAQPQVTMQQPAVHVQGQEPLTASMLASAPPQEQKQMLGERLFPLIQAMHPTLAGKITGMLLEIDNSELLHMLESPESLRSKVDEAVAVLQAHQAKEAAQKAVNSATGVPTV
eIF4H FP inh: inhibitors of RNA binding by human eIF4H | inhibition, % at 35 µM | AID 2012 | eIF4H fluorescence polarization binding assay | hit rate 0.94% among 290,000 | Q15056;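 active = 50% or more with normal probe brightness, or confirmed in later tests; about a fifth of its hits are not listed in these tables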;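 also: calls also rest on retests at 20 µM and on dose response follow-up; 0% = protein and probe with vehicle and 100% = probe without protein; strong numbers were not always called active; many hits fall short of the cut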
CSC inhib: cancer stem cell inhibition | cancer stem cell-like cells viability, luminescence | inhibition, % at 7.5 µM | hit rate 1.1% among 300,000;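 active = mean at 75% or more and at least half the replicates too; tested in HMLE shEcad cells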;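 also: 0% = median of negative and 100% = median of positive control wells; the first replicate is given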
Yeast UUG start: modulators of start codon recognition fidelity in yeast | hit rate 0.13% among 350,000 | activity score, % at 18.7 µM | S. cerevisiae UUG-firefly luciferase reporter, luminescence/redox ratio;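 active = replicate mean at a twofold rise or more, about +100% in these data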;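 also: firefly luciferase made from a UUG start codon reports start codon fidelity; reporter light over untreated wells divided by growth signal over untreated wells; some hits fall short of that in this replicate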
eIF4H FP inh retest: further read-out of eIF4H FP inh, marked with its call; inhibition, %; compound at 20 µM; confirmation average;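 mean of two retest wells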
PABP FP inh retest: recorded beside PABP FP inh, whose call it bears; inhibition, %; compound at 20 µM; confirmation repeats;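 mean of two retest wells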
MT1-MMP act inh RFP: recorded beside MT1-MMP act inh, whose call it bears; RFP signal change, %; measured here: RFP expression control read;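 0 = vehicle wells; hits needed this value within 50% of zero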
* marks the source's active call; other numbers are inactive results; i = inactive; x = not tested or not shown; & = joins results of further samples. A portion of the library (hit frequency here may not be typical).

SMILES	Rce1 inh	MT1-MMP act inh	MT1-MMP act inh RFP	HIV Env fusion	PABP FP inh	eIF4H FP inh	CSC inhib	Yeast UUG start	others
CC(C)OCCCNCC(O)c1ccccc1 (centres undefined)	i	-4	2	-9	8	-1	-4	8
Cc1[nH]nc2c1C(c1ccc(N(C)C)cc1)C1=C(CC(C)(C)CC1=O)N2 (centres undefined)	i	-2	1	5	8	-11	-7	-12
Cc1cccc([C@@H]2[C@@H]3C(=O)N(Cc4ccccc4)C(=O)[C@@H]3[C@]3(C)C(=O)N(c4cccc(F)c4)C(=O)N23)c1	i	-1	4	50	x	x	-9	-12
COc1ccc(C2=Nc3cccc4cccc(c34)N2)cc1	i	14	0	x	22	78*	x	-14	eIF4H FP inh retest=93*;PABP FP inh retest=43
Cc1cc(C)nc(NCCCc2ccccc2)n1	i	2	3	x	-7	7	0	0
COc1ccccc1-n1c(C)c(C(C)=O)c2cc(O)ccc21	i	-5	-10	16	3	-10	-8	-7
O=C(O)/C=C(\Oc1ccccc1)C1(O)CCCCC1	i	-7	-2	4	-3	0	-4	-17
CCOc1ccc(NC(=O)C2CC(=O)N(c3cc(C)cc(C)c3)C2)cc1 (centres undefined)	i	-1	2	x	-2	6	8	-7
Cc1ccc(S(=O)(=O)CC#CCOC(=O)c2ccc([N+](=O)[O-])cc2)cc1	i	x	x	x	-7	-8	42	x
Cc1oc(-c2ccccc2Cl)nc1CS(=O)CC(=O)NCc1ccc2c(c1)OCO2 (centres undefined)	i	4	3	0	-2	-16	-5	4
O=C(CNc1ccc(Br)cc1)c1ccccc1	i	-2	-1	-10	9	14	-7	-10
Cc1cc(C)nc(/N=C(\N)Nc2cc([N+](=O)[O-])ccc2C)n1	i	1	2	6	-4	-12	-6	7
COC(=O)c1c(NC(=S)NC(=O)c2ccco2)sc2c1CCCC2	i	-2	0	2	5	4	-13	x
CC1(C(=O)NS(=O)(=O)C2CC2)CCCN(C(=O)c2cccc(Cl)c2)C1 (centres undefined)	x	2	0	-6	x	x	x	-13
COc1ccc(CCN(C)Cc2nc(Cc3ccc(OC)c(OC)c3)no2)cc1OC	i	0	-4	8	6	-8	12	-8
CC1(C(=O)NCCC(F)(F)F)Cc2c(-c3cccc(C(F)(F)F)c3)ccnc2O1 (centres undefined)	x	-8	-17	-81	x	x	x	-9
Cc1ccc(NN2C(=O)C=C(c3ccc(Cl)cc3)C2=O)cc1	i	4	3	x	5	0	62	x
Cc1ccc(-c2nnn(CC(=O)N(CCCO)C(C(=O)NC3CCCC3)c3ccc(F)cc3)n2)o1 (centres undefined)	i	-6	-1	-49	0	7	-12	7
Cc1ccc(C(=O)NCC(=O)OCC(=O)c2ccccc2)s1	x	0	3	-4	x	x	10	-5
COCc1c(C(=O)OCC(=O)N2c3ccccc3NC(=O)C2(C)C)oc2ccccc12	x	-7	-2	3	-4	-7	x	7
O=C(CN1C(=O)S/C(=C\c2ccccc2Cl)C1=O)NC1C=CS(=O)(=O)C1 (centres undefined)	i	-8	-9	-26	0	5	15	-16
COc1ccc(OCC(=O)Nc2cc(NC(=O)COc3ccc(OC)cc3)cc(C(=O)O)c2)cc1	i	0	0	-33	9	-3	1	-7
COc1cccc(NC(=O)CN(c2ccc(C)cc2)S(=O)(=O)c2c(C)nn(C)c2C)c1	i	-1	1	-4	0	5	-1	-5
Cc1ccc(C23CC4CC(CC(C(=O)NC(C)C(=O)O)(C4)C2)C3)cc1 (centres undefined)	i	-2	2	5	12	-6	-10	6
CC(=O)CC1(O)C(=O)Nc2ccccc21 (centres undefined)	i	4&1	5&7	-23	6	6	6	-2
C[C@H](NC(=O)c1ccc(Cl)cc1)C(=O)OCn1nnc2ccccc2c1=O	x	-3	1	1	x	x	-13	-13
COc1ccc2c(-c3ccc(S(N)(=O)=O)cc3)c(-c3ccc(S(C)(=O)=O)cc3)sc2c1	x	-2	-9	-9	x	x	x	-15
O=C(c1nc2ccccn2c1CNCCCn1ncc2ccccc21)N1CCOCC1	i	-1	1	7	-2	0	-7	x
Cc1ccc(NC(=O)c2csc(-c3ccccc3)c2C)cc1	x	-1	5	i	-12	1	x	-11
O=C1NC2(CCCCC2)N=C1c1ccc(Br)cc1	i	0	-3	-91	-6	3	-17	-9

Pulled one by one from above:
SMILES	Rce1 inh	MT1-MMP act inh	MT1-MMP act inh RFP	HIV Env fusion	PABP FP inh	eIF4H FP inh	CSC inhib	Yeast UUG start	others
Cc1ccc(S(=O)(=O)CC#CCOC(=O)c2ccc([N+](=O)[O-])cc2)cc1	i	x	x	x	-7	-8	42	x
O=C(CNc1ccc(Br)cc1)c1ccccc1	i	-2	-1	-10	9	14	-7	-10

Later entries:
SMILES	Rce1 inh	MT1-MMP act inh	MT1-MMP act inh RFP	HIV Env fusion	PABP FP inh	eIF4H FP inh	CSC inhib	Yeast UUG start	others
Cn1c(=O)c2c(nc(N3CCCCCC3)n2CCSc2nc3ccccc3o2)n(C)c1=O	i	2	-3	-1	3	-9	x	6
CC1CCCCN1CC(=O)Nc1sccc1C#N (centres undefined)	i	-3	4	-57	59*	75*	-9	-10
COc1ccc(C(=O)c2nc3c(n2O)CCCCC3)cc1	i	3	6	x	-3	2	-13	-11
CCOC(=O)c1ccc(S(=O)(=O)N2CCN(C(=O)c3cccc(S(=O)(=O)N4CC(C)OC(C)C4)c3)CC2)cc1 (centres undefined)	x	4	-2	-10	x	x	x	-14
CC(=O)c1cnc(Oc2cc(Cl)ccc2Cl)nc1C	i	-3	0	-4	6	2	-1	-15
CC12CCC(C(=O)N(CC(O)CN3CCCCCC3)C1=O)C2(C)C (centres undefined)	i	-2	3	-9	-4	-8	-5	x
Cn1c(=O)c2c(C(=O)O)cc(-c3ccccc3)nc2n(Cc2ccccc2)c1=O	i	1	2	-2	25	17	3	-21
CCOc1ccc(N2C(=O)CC(S/C(N)=N/N=C/c3cccs3)C2=O)cc1 (centres undefined)	i	-4	0	-10	-8	-10	-3	-31
CN(C)Cc1cc(OCc2ccccc2)cc(CN(C)C)c1O	x	2	4	7	x	x	x	-22
CCOC(=O)C1=CN(CC2CCCO2)C=C(C(=O)OCC)C1c1ccccc1C(F)(F)F (centres undefined)	i	-44	-36	-4	-2	2	x	-10
COc1ccccc1NC(=O)COC(=O)c1ccccc1OCC(=O)Nc1ccc(SC(F)F)cc1	i	5	-1	x	4	-11	-8	-3
COc1ccc(C(C(=O)NC2CCCCC2)N(C(=O)Cc2c[nH]c3ccccc23)c2ccc(NC(C)=O)cc2)cc1OC (centres undefined)	i	0	3	-107	-4	1	3	-21
O=C(Nc1ccc(F)c(Cl)c1)c1csc([C@@H]2C[C@H](O)[C@@H](CO)O2)n1	x	3	4	-18	x	x	x	-20
Cc1cc(C(=O)COC(=O)c2n[nH]c3ccccc23)c(C)n1CC1CCCO1 (centres undefined)	i	1	0	x	8	6	3	-49
O=C1c2ccccc2NC(c2ccccc2)N1Cc1ccccc1 (centres undefined)	i	-2	-2	15	x	x	4	1
CC1CC(C)CN(C(=O)COC(=O)c2cc([N+](=O)[O-])ccc2N2CCOCC2)C1 (centres undefined)	i	0	0	6	x	x	-1	x
O=S(=O)(c1ccccc1)c1nc(Cc2ccccc2)oc1N1CCOCC1	i	-5	-2	17	9	-6	5	-13
COc1ccc(CN2CCN(Cc3cc4ccccc4o3)CC2CCO)c(F)c1 (centres undefined)	i	4	2	4	0	-3	-5	-8
CNS(=O)(=O)c1ccc(NC(=O)c2csc(C)c2)cc1	i	1	5	8	16	15	-3	-8
O=C(O)CCCCCn1c(SCc2cc(=O)n3cc(Cl)ccc3n2)nc2ccsc2c1=O	i	-1	2	17	-12	4	9	2
O=C(COC(=O)[C@@H]1CCCN1S(=O)(=O)c1ccc(Cl)cc1)NCC(F)(F)F	i	1	3	28	-4	-1	22	x
O=C(CN1C(=O)CCS(=O)(=O)c2ccccc21)Nc1cccc(Cl)c1	i	1	-2	x	3	4	12	-8
CC(NC(=O)Nc1ccc(Cl)cc1)c1ccccc1 (centres undefined)	i	8	-8	-5	-4	6	-8	-8
N#Cc1c(-c2ccccc2)c(C#N)c2nc3ccccc3n2c1N	i	1	-2	1	4	10	4	x
CC(C)NC(=O)COc1nncc2ccccc12	i	1	5	2	31	-8	-6	-14
CCc1ccc(C(=O)Nc2nc3ccccc3[nH]2)cc1	x	3	-6	-194	3	-23	31	-78
C#CCOCCOCCOCCNc1nc(N2CCN(C(=O)[C@H]([C@@H](C)CC)n3cc([C@@H](N)CO)nn3)CC2)nc(N2CCN(C(=O)[C@H](Cc3cc4ccccc4[nH]3)n3cc([C@@H](N)C(C)CC)nn3)CC2)n1 (some centres undefined)	i	x	x	x	31	18	1	x
CC(C)(C)NC(=O)CSc1nc(Cc2ccccc2)nc2ccccc12	i	-3	-9	14	-1	-7	2	-20
Cc1cc(C)c(NS(=O)(=O)c2ccc3c(c2)n(C)c(=O)n3C)c(C)c1	i	-3	1	20	1	7	8	-7
Cc1ccc(C2C(=O)c3ccccc3C2=O)cc1	i	3	5	19	-1	0	5	-15

Molecules above that contain a CF3 group, in the order listed:
SMILES	Rce1 inh	MT1-MMP act inh	MT1-MMP act inh RFP	HIV Env fusion	PABP FP inh	eIF4H FP inh	CSC inhib	Yeast UUG start	others
CC1(C(=O)NCCC(F)(F)F)Cc2c(-c3cccc(C(F)(F)F)c3)ccnc2O1 (centres undefined)	x	-8	-17	-81	x	x	x	-9
CCOC(=O)C1=CN(CC2CCCO2)C=C(C(=O)OCC)C1c1ccccc1C(F)(F)F (centres undefined)	i	-44	-36	-4	-2	2	x	-10
O=C(COC(=O)[C@@H]1CCCN1S(=O)(=O)c1ccc(Cl)cc1)NCC(F)(F)F	i	1	3	28	-4	-1	22	x

(more compounds)
SMILES	Rce1 inh	MT1-MMP act inh	MT1-MMP act inh RFP	HIV Env fusion	PABP FP inh	eIF4H FP inh	CSC inhib	Yeast UUG start	others
O=C(CN1C(=O)c2ccccc2S1(=O)=O)NCCSCc1ccccc1Cl	i	-2	1	6	4	1	1	-16
COc1ccc2c(c1)CCN=C2Cc1ccc(OC)c(OC)c1	i	1	0	10	-2	10	-5	x
Cc1ccc(NC(=O)C2CCN(S(=O)(=O)c3ccc4c(c3)NC(=O)CO4)CC2)cc1	i	0	-5	7	4	-4	3	-11
Cc1oc2c(c(C)cc3oc(=O)c(CC(=O)NCCC(=O)O)c(C)c32)c1C	i	x	x	9	18	-2	-3	-1
COc1ccc(C(=O)N/C(=C/c2cccs2)C(=O)N2CCN(C)CC2)cc1	x	0	3	-5	x	x	x	0
COc1ccc(S(=O)(=O)NC(C)C(=O)Nc2cccc(C(C)=O)c2)cc1 (centres undefined)	i	0	5	x	1	27	-4	-12
COc1ccc(NC(=O)CN(C)CC(=O)Nc2cccc(C(F)(F)F)c2)cc1	i	2	1	7	-6	-2	-2	9
Cc1cc(F)ccc1S(=O)(=O)N1CCCOC1CNC(=O)C(=O)NCC(C)C (centres undefined)	i	0	1	0	1	2	-3	-7
O=S(=O)(NCc1ccccc1F)c1cccc(S(=O)(=O)N2CCOCC2)c1	i	2	6	17	-6	-5	-8	x
c1ccc([C@H]2CC3C[C@@H](c4ccccc4)N2O3)cc1	i	-2	-1	x	2	5	5	-15
COC(=O)C1(CC2CC(c3ccccc3)=NO2)CCN(C(=O)OC(C)(C)C)CC1 (centres undefined)	i	3	-8	-16	x	x	-2	18
COc1ccc(C(=O)C(CN2CCCC2)c2ccccc2)cc1 (centres undefined)	i	1	-12	-41	-2	-8	86*	-20
CCOc1cc(C)nc(N2CCC(C(=O)Nc3ccccc3OCC)CC2)n1	i	5	-7	x	-9	-1	7	-1
COC(=O)c1ccnc(/C=N/O)c1	i	0	4	x	7	4	0	-3
N/C(=N\OC(=O)CCC1CCCC1)c1cccc([N+](=O)[O-])c1	i	3	6	-29	-1	-7	-10	x

High-throughput results deposited in PubChem by several laboratories.
